From PubChem BioAssay
VDR inh = vitamin D3 receptor (human) inhibition; VDR-SRC2-3 peptide fluorescence polarization, 2 h; Potency, µM, for inactives: max response, negative = inhibition, hits mostly inhibitors; 400,000 compounds, 0.93% hits; AID 504847; active = well fitted inhibition curve with a large enough effect; inconclusive = small, poorly fitted or top-dose-only effect, or another doubt; inactive = no such curve, though single readings can be large or run the other way; note: series mostly up to about 120 µM
Target sequence (P11473 whole entry, looked up): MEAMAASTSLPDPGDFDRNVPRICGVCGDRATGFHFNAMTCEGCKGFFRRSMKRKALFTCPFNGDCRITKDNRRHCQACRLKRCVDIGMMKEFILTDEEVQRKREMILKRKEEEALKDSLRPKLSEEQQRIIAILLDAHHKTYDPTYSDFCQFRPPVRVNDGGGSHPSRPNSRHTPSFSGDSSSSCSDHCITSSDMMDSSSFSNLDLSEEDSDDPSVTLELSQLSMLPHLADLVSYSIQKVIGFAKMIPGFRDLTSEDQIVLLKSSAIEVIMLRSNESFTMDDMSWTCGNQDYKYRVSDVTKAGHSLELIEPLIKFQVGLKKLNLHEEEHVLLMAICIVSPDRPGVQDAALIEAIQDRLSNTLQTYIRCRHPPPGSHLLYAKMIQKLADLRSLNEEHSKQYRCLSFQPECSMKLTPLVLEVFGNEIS
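After 23 nl compound addition and a short centrifugation, plates sat for 2 hours at ambient temperature; polarization of fluorescence then indicated loss of VDR binding to peptide SRC2-3.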
Starred values were filed as active, the others as inactive; ? = inconclusive; & = joins results of further samples. % is set by controls: 0 for no effect and ±100 for the full control effect; potency is the fitted concentration of half-maximal effect. This is a subset (hit frequency here may not be typical).

SMILES	VDR inh
Cc1noc(C)c1NC(=O)N(C)C[C@H]1Oc2c(NS(=O)(=O)c3cn(C)cn3)cccc2C(=O)N([C@H](C)CO)C[C@@H]1C	7.4%
COc1cc(-c2[nH]ncc2CN2CCSCC2)cc(OC)c1OC	-17.4%
Cc1cnc(C(=O)OC(C)C(=O)NC2CCCc3ccccc32)cn1 (centres undefined)	0.8%
Cc1cccc(NC(=O)C2CCN(S(=O)(=O)c3c(C)[nH]c(=O)[nH]c3=O)CC2)c1	0.9%
CC(C)OC(=O)N(C)c1ccc(C(O)(C(F)(F)F)C(F)(F)F)cc1	-13.8%
CCOC(=O)Nc1ccc(S(=O)(=O)N(C)C(C)C)cc1	5.0%
COc1ccc(-c2cnc(NCc3cc4c(cc3[N+](=O)[O-])OCO4)n2C)cc1	-2.1%
Cc1nc(-c2ccccc2)[nH]c(=O)c1Oc1ccc(Cl)cc1Cl	-13.7%
CCN(CC)C(=O)c1sc(NC(=O)c2cccs2)c(C#N)c1C	16.4%
O=S(=O)(c1ccccc1)N1CCN(C(=S)NCCCN2CCOCC2)CC1	25.8%
COc1ccc(S(=O)(=O)NCC(c2ccc(N(C)C)cc2)N2CCc3ccccc32)cc1F (centres undefined)	5.8%
CC(=O)Oc1ccc(/C=N\NC(=O)c2cc3c(ccc4ccccc43)o2)cc1	-1.5%
Cc1cccc(C)c1NC(=O)CCSc1nc(-c2ccc3c(c2)OCO3)cc(C(F)(F)F)n1	-2.6%
C/C(CCN1CCc2nc(-c3ccccc3)c(-c3ccccc3)cc2C1)=N\OC[C@@H](C)[C@H](OCc1ccccc1)C(C)C	-18.4%
Cn1cnnc1SCc1ccc(C#N)cc1	-9.1%
Cc1ccc(SCC(=O)OCC(=O)NCc2cccs2)cc1C	-8.9%
CC(OC(=O)C1CCCCC1)C(=O)Nc1ccc(S(N)(=O)=O)cc1 (centres undefined)	17.3%
COc1ccc(/C=N/Nc2ccccn2)cc1OC	-12.1%
COCCCNC(=O)Cn1c(=O)n(-c2cccc(C)c2)c(=O)c2c3c(sc21)CN(C(C)=O)CC3	-7.7%
CCc1ccccc1NC(=O)c1cnc2sc(N3CCCC3)nn2c1=O	8.6%
CC(C)(C)n1nc(Cc2cccc3ccccc23)c2c(N)ncnc21	-16.0%
CCOc1ccc(NC(=O)CN2CCCC2c2cccs2)cc1S(=O)(=O)N1CCCC1 (centres undefined)	5.1%
COc1ccc(-c2nc(N)n(C(=O)c3ccccc3)n2)cc1	14.2%
O=C(Nc1ccc(Cl)c(Cl)c1)Nc1ccc(N2CCCC2)c(S(=O)(=O)Nc2ccccc2Cl)c1	-26.6%
CCOC(=O)c1c(NC(=O)c2ccc(S(=O)(=O)N(C)CC3CCCO3)cc2)sc2c1CC(C)(C)NC2(C)C (centres undefined)	11.7%

Overlap with the part before: six compounds; new compounds follow.
SMILES	VDR inh
CCc1ccccc1NC(=O)c1cnc2sc(N3CCCC3)nn2c1=O	8.6%
CC(C)(C)n1nc(Cc2cccc3ccccc23)c2c(N)ncnc21	-16.0%
CCOc1ccc(NC(=O)CN2CCCC2c2cccs2)cc1S(=O)(=O)N1CCCC1 (centres undefined)	5.1%
COc1ccc(-c2nc(N)n(C(=O)c3ccccc3)n2)cc1	14.2%
O=C(Nc1ccc(Cl)c(Cl)c1)Nc1ccc(N2CCCC2)c(S(=O)(=O)Nc2ccccc2Cl)c1	-26.6%
CCOC(=O)c1c(NC(=O)c2ccc(S(=O)(=O)N(C)CC3CCCO3)cc2)sc2c1CC(C)(C)NC2(C)C (centres undefined)	11.7%
Cn1c(=O)c2c(nc(Br)n2C)n(C)c1=O	-3.7%
CCn1c(SCC(=O)NCCOC)nc2sc3c(c2c1=O)CCCC3	-1.6%
CCCc1cc(=O)oc2c(CNc3ccc(OCC)cc3)c(O)ccc12	-13.6%
COc1cc(OC)cc(C(=O)Nc2nc3ccc(S(C)(=O)=O)cc3s2)c1	-0.9%
CC(C)CCNC(=O)C1CC(c2ccccc2C(F)(F)F)=NO1 (centres undefined)	-23.2%
CC(Oc1ccc(Cl)cc1Cl)c1nc(-c2ccccn2)no1 (centres undefined)	-11.1%
Cc1ccc(CCNC(=O)C2CCCN(c3ncnc4c3nc3n4CCCCC3)C2)cc1 (centres undefined)	-12.1%
COc1ccc(S(=O)(=O)Nc2ccc3c(c2)CCCN3S(=O)(=O)c2ccc(C)cc2)cc1F	17.7%
COc1ccc(N2CCN(CCCNC(=O)c3cc4sccc4n3C)CC2)cc1	-1.3%
Cc1nc(N)c(C#N)c(-c2cccnc2)c1C	-18.7%
CN(C)c1ccc(-c2cccc(C3CC=CC4C3C(=O)N(Cc3ccccc3)C4c3ccc4ccccc4c3)c2)cc1 (centres undefined)	-6.9%&-4.8%
CCOC(=O)C1=C(Nc2ccccc2)CC(C)(O)C(C(=O)OCC)C1c1ccc(Cl)cc1 (centres undefined)	10.1%&-12.6%
Cn1nc(-c2ccc(C(=O)Nc3cccnc3)cc2)c2ccccc2c1=O	10.5%
COCCCNC(=O)C1CC(=O)OC1c1ccc(OC)c(OC)c1 (centres undefined)	-4.0%
Cc1ccccc1OCC(O)CN1CCN(c2ccc(Cl)cc2)CC1 (centres undefined)	2.0%
CCOC(=O)Cc1csc(N/N=C/c2ccc(Cl)cc2)n1	11.7%
O=C(CNC(=O)c1sc2ccccc2c1Cl)OCc1ccccc1	7.3%
CC1CC(C)CN(CCCNC(=O)CCC(=O)N2CCOc3ccccc32)C1 (centres undefined)	0.7%
COc1ccc(NC(=O)C(c2ccccc2)N2Cc3ccccc3C2=O)cc1 (centres undefined)	12.7%
COc1cc(NC(=O)C2CCCN(S(=O)(=O)c3cn(C)cn3)C2)cc(OC)c1 (centres undefined)	-7.2%
O=C(Nc1cccc2c1CCCC2)C1CCN(C(=O)NC2CCCCC2)CC1	10.9%
O=C(c1ccccc1Cl)N1CCC(N2CCC(C(=O)N3CCCC3)CC2)CC1	-0.5%
CC(=O)[C@@]12O[C@@H]1C[C@H]1[C@@H]3CC[C@H]4C[C@@H](O)CC[C@]4(C)[C@H]3CC[C@@]12C	12.9%
N#C/C(=N\Nc1ccc(F)cc1)C(=N)N1CCCCC1	0.9%
CC(Nc1nc(-c2ccc3c(c2)NC(=O)CO3)cs1)c1ccccc1 (centres undefined)	-8.1%

Continued:
SMILES | VDR inh
O=C1CS(=O)(=O)N(Cc2ccccc2F)c2ccc(Br)cc21 | ?
CN1CCN(S(=O)(=O)c2ccc(Br)s2)CC1 | 9.7%
O=C1CC(c2ccco2)CC(O)=C1C=NCCN1CCN(C2CC(=O)N(c3ccccc3)C2=O)CC1 (centres undefined) | -4.1%
C=CCn1c(SCC(=O)Nc2cccnc2Cl)nnc1-c1ccc(C(C)(C)C)cc1 | -8.3%
Cn1nc(-c2ccccc2F)c2cc(C(=O)Nc3cc(F)ccc3F)sc21 | ?
COc1cc(NC(=O)c2ccc(S(=O)(=O)N(C)c3ccccc3)cc2)cc(OC)c1 | -16.7%
Cc1ccc(N(CC(=O)NC2CCCCC2)C(=O)CCCC(=O)Nc2ccccn2)c(C)c1 | -9.3%
CCc1ccccc1Cn1c(=O)oc2cccnc21 | 8.2%
CCn1c2c(c(=O)n3ncc(C(=O)Nc4ccc(F)cc4Cl)c13)CN(Cc1ccc(OC)cc1)CC2 | -13.9%
Cn1c(=O)c2c(nc(SCC(=O)O)n2Cc2cc3c(cc2Cl)OCO3)n(C)c1=O | -5.2%
COc1ccc(NC(=O)CSc2nnc(CNC(=O)c3ccco3)o2)c(OC)c1 | -20.7%
CCOc1ccc2[nH]c3c(NCCC(C)C)ncnc3c2c1 | -23.8%
O=S(=O)(O)c1cccc2cccc(Nc3ccccc3)c12 | ?
Cc1cccc(C(=O)N2CCN(c3ncnc4c3cnn4-c3ccccc3)CC2)c1 | -7.6%
CN1CCN(C(=O)/C(=C/c2cn(S(=O)(=O)N(C)C)c3ccccc23)NC(=O)c2ccccc2F)CC1 | -17.2%
O=C(CSc1nc2ccccc2c(=O)[nH]1)Nc1ccc(C(=O)O)cc1 | -10.8%
N#Cc1ccccc1OCC(=O)NNC(=O)CCC1CCCC1 | 2.2%
O=C(Cc1cccc(NC(=O)C2CCN(C(=O)C3CCC3)CC2)c1)Nc1cccc(C(=O)N2CCCC2)c1 | -2.2%
Cc1ccc(NC(=O)C(=O)NCCN2CCN(C(=O)C(c3ccccc3)c3ccccc3)CC2)cc1 | -1.1%
CCC(Oc1ccccc1)C(=O)Nc1nc2ccccc2[nH]1 (centres undefined) | -14.9%

Fetched by structure from above, five records:
SMILES | VDR inh
COc1ccc(NC(=O)C(c2ccccc2)N2Cc3ccccc3C2=O)cc1 (centres undefined) | 12.7%
CN1CCN(C(=O)/C(=C/c2cn(S(=O)(=O)N(C)C)c3ccccc23)NC(=O)c2ccccc2F)CC1 | -17.2%
Cc1ccc(SCC(=O)OCC(=O)NCc2cccs2)cc1C | -8.9%
Cc1ccc(NC(=O)C(=O)NCCN2CCN(C(=O)C(c3ccccc3)c3ccccc3)CC2)cc1 | -1.1%
CCn1c2c(c(=O)n3ncc(C(=O)Nc4ccc(F)cc4Cl)c13)CN(Cc1ccc(OC)cc1)CC2 | -13.9%

Returning to the listing, starting 2 compounds before the break.
SMILES | VDR inh
Cc1ccc(NC(=O)C(=O)NCCN2CCN(C(=O)C(c3ccccc3)c3ccccc3)CC2)cc1 | -1.1%
CCC(Oc1ccccc1)C(=O)Nc1nc2ccccc2[nH]1 (centres undefined) | -14.9%
O=C(Cn1ncc2c3ccccc3n(Cc3ccccc3F)c2c1=O)NCCN1CCOCC1 | 3.1%
Cc1ccc(NC(=O)C2CCCN2S(=O)(=O)c2ccc(F)cc2)c(C)c1 (centres undefined) | 0.6%
NNC(=O)c1[nH]c2ccc(Br)cc2c1-c1ccccc1 | ?
COC(=O)c1ccc(NC(=O)c2c(C(=O)Nc3ccccc3)sc3nc(C)cc(=O)n23)cc1 | -4.2%
CCCCN(C(=O)NC(=O)Nc1ccccc1OCC)S(C)(=O)=O | 3.9%
Cc1ccc(C(=O)NCCC(=O)N2CCOCC2)cc1 | 9.6%
CC1=C(C)CC(C(=O)Nc2ccc(C(N)=O)cc2)C(C(=O)O)C1 (centres undefined) | -10.1%
CCOc1ccc(-c2nc(Cn3c(=O)cc(C)c4c(C)nn(-c5ccccc5)c43)c(C)o2)cc1 | 5.5%
CCN(CC(=O)Nc1ccc2c(c1)OCCO2)C(=O)CCOc1ccccc1 | -16.1%
CC1CCCN(S(=O)(=O)c2ccccc2[N+](=O)[O-])C1 (centres undefined) | -0.7%
Cc1cccc(N2C(=O)c3cccc(Oc4ccc(Cl)cc4)c3C2=O)c1 | -2.4%
CCOC(=O)COc1ccc(CC)cc1C(=O)c1ccn2nc(-c3ccc(F)cc3)cc2n1 | -21.4%
COc1cccc(OC)c1C(=O)NNC(=O)c1cccc(COc2ccc3c(c2)CCC3)c1 | 0.9%
COc1ccc(C(=O)C2CCCN(C(=O)c3cccc(Cn4cccn4)c3)C2)cc1F (centres undefined) | 7.8%
CC(=O)c1ccc(OC(=O)c2ccc(Br)o2)cc1 | 6.9%
COc1ccc(C/C(C)=N\NC(=O)c2cn(C)c3ccccc23)cc1OC | -3.9%
O=C(c1ccco1)N1C2C=CC(C2)C1(C(F)(F)F)C(F)(F)F (centres undefined) | 1.2%
COC(C(=O)N1CCC(CCC(=O)Nc2ccccc2)CC1)c1ccccc1 (centres undefined) | -15.7%
Cn1c(=O)c2nc(SCC(=O)Nc3ccc(Cl)c(Cl)c3)n(C)c2n(C)c1=O | 17.6%
CCCn1c(SCCN2C(=O)c3ccccc3C2=O)n[nH]c1=O | 5.8%
COc1ccc(-c2cc(C(=O)N(C)CC(=O)Nc3ccccc3C(F)(F)F)c3ccccc3n2)cc1OC | 2.9%
S=C(NN=C1C2CC3CC(C2)CC1C3)Nc1ccccc1 | -14.5%
O=C(/C=C/c1ccc(S(=O)(=O)N2CCOCC2)cc1)N1CCCCC1 | -2.1%
COc1ccc(S(=O)(=O)CCC(=O)N(C)c2ccc(OC)cc2OC)cc1 | 0.0%
CCc1ccc(NC(=O)C2CCCCC2C(=O)O)cc1 (centres undefined) | -2.7%
O=C(CN(C(=O)CCC(=O)Nc1ccccn1)c1ccc2c(c1)OCO2)NCc1ccc(F)cc1 | 0.3%
COc1ccc(NC(=S)N2CCN(c3ncccn3)CC2)c(OC)c1 | -0.9%
COC(=O)c1cccc(NC(=S)NC(C)C)c1 | 9.3%
COc1ccc(Nc2ncccc2C(=O)O)cc1 | 3.4%
CC12C(=O)N(n3cnnc3)C(=O)C1C1C=CC2C1 (centres undefined) | 11.0%
COC(=O)c1ccc(N(C(=O)CNC(=O)c2ccco2)C(C(=O)NCC2CCCO2)c2ccc(OC)c(OC)c2)cc1 (centres undefined) | -6.2%
COc1ccc(NC(=O)C(C)N2C(=O)c3ccccc3S2(=O)=O)c(OC)c1 (centres undefined) | -3.0%
C/C(=N\NC(=O)CSCc1ccccc1Br)c1cccc([N+](=O)[O-])c1 | -11.3%
O=C(COC(=O)CSc1ccc([N+](=O)[O-])cc1)NCc1cccs1 | -14.5%
COCC1CCN(C(=O)c2cc(COc3ccc(C)c(C)c3)on2)C1 (centres undefined) | -6.4%
CCNC(=O)c1ccccc1-c1nc(-c2ccccc2)no1 | -4.0%
COc1ccc(/C=N/NC(=O)CNS(=O)(=O)c2ccc(C)cc2)cc1 | -11.9%
Cc1ccc(S(=O)(=O)N(C)CC(=O)OCC(=O)N2CCN(c3ccccc3)CC2)cc1 | -0.6%
CCOC(=O)C1CCCN(C(=O)CCn2nc(-c3ccccc3)ccc2=O)C1 (centres undefined) | -13.1%
COc1ccccc1N(/N=C1\Sc2ccccc2C1=O)C(C)=O | -25.1%
CCOc1ccc(Nc2nc(N)c([N+](=O)[O-])c(N3CCN(CC)CC3)n2)cc1 | -16.0%
CC1CCCC(C)N1C(=O)CSc1nnc(COc2ccccc2)n1-c1ccccc1 (centres undefined) | 11.0%
O=C1CC(c2nc3ccccc3[nH]2)CN1c1ccccc1F (centres undefined) | 11.2%
Cc1nc(-c2ccc(Cl)cc2)sc1C1(C)CC(c2cccnc2)=NO1 (centres undefined) | -16.9%
O=C1c2cccc3cc([N+](=O)[O-])cc(c23)C(=O)N1c1ccccc1O | 14.3%
